Compound activity (PubChem BioAssay)
RecA splice inh = Mtb RecA intein splicing inhibition; P9WHJ3; cell-free RecA intein splicing, fluorescence; inhibition, %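 (about 9 µM by stock and volumes)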; 290,000 compounds, 0.75% hits; AID 2221; in the data active means inhibition above about 30%; inconclusive means no clear call, values can overlap the other calls;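 further: 0% = vehicle wells and 100% = reference inhibitor control wells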
Target sequence (P9WHJ3 whole entry, looked up, canonical isoform): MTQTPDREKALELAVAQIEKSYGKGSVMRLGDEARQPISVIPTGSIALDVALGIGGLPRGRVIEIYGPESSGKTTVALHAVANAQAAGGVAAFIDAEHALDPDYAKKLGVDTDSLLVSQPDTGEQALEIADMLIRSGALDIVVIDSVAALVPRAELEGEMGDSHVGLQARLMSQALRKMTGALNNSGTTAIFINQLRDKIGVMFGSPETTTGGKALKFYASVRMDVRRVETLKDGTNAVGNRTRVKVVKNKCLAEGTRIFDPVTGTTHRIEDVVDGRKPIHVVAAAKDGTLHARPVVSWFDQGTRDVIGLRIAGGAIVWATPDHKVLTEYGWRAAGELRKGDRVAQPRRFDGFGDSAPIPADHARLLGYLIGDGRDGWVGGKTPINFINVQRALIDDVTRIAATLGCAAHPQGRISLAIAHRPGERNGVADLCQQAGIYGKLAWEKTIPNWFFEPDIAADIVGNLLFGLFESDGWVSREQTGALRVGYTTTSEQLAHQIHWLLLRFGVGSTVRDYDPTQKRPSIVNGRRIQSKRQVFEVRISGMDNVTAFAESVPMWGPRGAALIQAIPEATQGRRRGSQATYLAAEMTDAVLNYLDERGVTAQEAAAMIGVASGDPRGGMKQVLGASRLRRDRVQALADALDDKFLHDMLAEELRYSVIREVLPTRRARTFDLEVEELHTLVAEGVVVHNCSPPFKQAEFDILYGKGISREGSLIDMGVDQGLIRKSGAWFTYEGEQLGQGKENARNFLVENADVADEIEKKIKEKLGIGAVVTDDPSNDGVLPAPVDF
Mtb growth = M. tuberculosis H37Rv growth inhibitors, H37Rv strain (AID 1626) | M. tuberculosis H37Rv growth inhibition; higher % means a stronger effect | inhibition, % at 10 µM, or IC50 in µM where a hit was titrated | 220,000 compounds, 0.95% hits;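 active means confirmed in a dose series; inconclusive means inhibition above 80% but not taken into the dose series; inactive means below 80% or under 30% at every dose of the series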;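 further: bacteria incubated seven days before Alamar blue readout; 0% = bacteria only wells and 100% = bacteria with antibiotic wells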
Arbovirus anti = arbovirus infection inhibition | arbovirus infection cell-based antiviral screen | inhibition, % at 10 µM | 200,000 compounds, 0.37% hits | AID 1251;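 active means inhibition from about 30%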;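 further: bluetongue infection of BSR cells; cell survival read as ATP light after 72 h; 0% = infected wells without compound and 100% = uninfected wells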
Mtb bLac sens = beta-lactam sensitization of Mtb H37Rv; M. tuberculosis H37Rv growth with meropenem, percent inhibition; hits of this screen are not shown here; inhibition, % at 25 µM; 330,000 compounds, 0.27% hits; AID 434955;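 active means about 74% or more and at least 40 points above the plate without the antibiotic, then above 30% in a dose series; inconclusive means first-round hits that could not be retested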;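 further: growth measured after seven days incubation then overnight dye step; 0% = bacteria only wells and 100% = bacteria with antibiotic; twin plates without the antibiotic show which effects depend on it; some results filed as inactive read as strong as hits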
YopH inh = inhibitors of Yersinia enterocolitica YopH tyrosine phosphatase | AID 898 | 140,000 compounds, 0.16% hits | inhibition, %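 (about 10 µM by stock and volumes)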 | fluorescence Ex485/Em525;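 active means inhibition of 50% or more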;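 further: controls were vehicle for no effect and minimum signal wells for full effect; inactives centre near -20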
Arbovirus anti repeat = also measured in Arbovirus anti; calls as there; inhibition, %; measured here: 10K subset replicate screen; many hits read low in the repeat;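 first of two repeat runs on a subset; 0% = infected and 100% = uninfected wells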
Active calls of the source: *; ? = inconclusive; nt = not tested or not shown. An excerpt. The share of hits here may be higher or lower than overall.

SMILES	RecA splice inh	Mtb growth	Arbovirus anti	Mtb bLac sens	YopH inh	others
Cc1ccc(-n2c(SCC(N)=O)nnc2-c2cccnc2)c(C)c1	-0.6	-8%	-3	4	-38
CN(C)/C=C(\C#N)C(=O)Nc1ccc(F)cc1	-2.5	-3%	-3	-6	12
CN(C)C=NC(=O)c1cc(C(=O)c2ccccc2Cl)c[nH]1	1.3	-3%	1	3	nt
CCOC(=O)C1=C(C)N=C2SC(C)C(=O)N2C1c1ccc(OCC)c(OCC)c1 (configuration not stated)	-0.1	-9%	-9	-9	8
Cc1ccc(CN2CCN(Cc3ccc(C)s3)CC2CCO)cc1 (configuration not stated)	-5.8	1%	7	-7	nt
CCOc1ccccc1NC(=O)C1C2CCC(O2)C1C(=O)O (configuration not stated)	0.2	nt	nt	2	nt
NC(=O)Cn1cc(C(=O)COc2ccccc2)c2ccccc21	-4.5	-2%	7	2	nt
COc1ccc(Oc2cccc(Cl)c2CNC(=O)CCC(=O)O)cc1	-0.6	-3%	nt	-3	nt
O=C1CC2CS(=O)(=O)CC2N1c1ccc(Oc2ccccc2)cc1 (configuration not stated)	0.5	2%	0	2	-25
CCOC(=O)C1=C(N)Oc2c(oc(CO)cc2=O)C1c1ccccc1 (configuration not stated)	1.5	0%	3	-8	nt
O=S(=O)(NCC1CCCO1)c1ccccc1F (configuration not stated)	-1.9	nt	nt	-9	nt
Cc1cc(N2C(=O)C(O)=C(C(=O)c3ccc(C)o3)C2c2cccc(Oc3ccccc3)c2)no1 (configuration not stated)	8.2	nt	nt	0	nt
Cc1ccc(NC(=S)NCCCN2CCOCC2)cc1C	-2.0	6%	nt	-7	nt
CCCCn1c(N)c(N(CC(C)C)C(=O)Cn2c(=O)cnc3ccccc32)c(=O)[nH]c1=O	-2.1	nt	nt	-8	nt
Cc1cc(C)n(C(=O)COc2ccc(Cl)cc2Cl)n1	3.8	-2%	6	1	-17
CCOc1ccc(C(=O)C2CCN(C(=O)c3ccccc3C(=O)O)CC2)cc1	-3.7	-4%	9	1	-15
Cc1ccccc1NC(=O)c1ccc(C)c(S(=O)(=O)Nc2ccccn2)c1	-1.8	-5%	2	-7	-22
Cc1ccc(NC(=O)C2CC(=O)NC(Nc3cccc(C)c3)=N2)cc1 (configuration not stated)	1.0	3%	-3	1	-31
CCN1CCN(S(=O)(=O)c2ccc(S(=O)(=O)NCC3CCCO3)cc2)CC1 (configuration not stated)	-0.6	-16%	7	0	-40
COC(=O)c1ccc(NC(=S)NCCc2cccc(C)c2)cc1	11	9%	13	18	-9
O=C(CCCc1ccccc1)NC1CC1	3.1	-6%	7	0	-29
O=C(/C=C/c1ccccc1[N+](=O)[O-])NCCCN1CCCC1=O	-1.6	nt	nt	1	nt
C=CCn1c(=O)c(C=Nc2cccc([N+](=O)[O-])c2)c(O)n(CCCC)c1=O	1.3	-2%	12	2	-1
Cc1cccc(Nc2nnc(SCC(=O)c3ccc(Br)s3)s2)c1C	1.4	-1%	-37	?	-18
CC(C)n1cc(CN2CCN(C)C(CCO)C2)c2ccccc21 (configuration not stated)	2.4	nt	nt	-10	nt
CCCCOC(=O)CCCN1C(=O)/C(=C2\SC(=S)N(CCCC(=O)OCCCC)C2=O)SC1=S	3.5	?	nt	99	nt
COC(=O)C1CCN(CC(=O)NC(=O)NC2CCCCC2)CC1	-1.3	-10%	11	-1	nt
O=C1CN(C(=O)NCC(=O)N[C@H](C(=O)O)c2ccccc2)c2ccccc2N1	-5.9	nt	nt	0	nt
CCOc1ccc(-c2nnc(-c3ccncc3)o2)cc1	6.8	7%	8	-1	-23
CC(=O)c1c(C)[nH]c(C(=O)OCC(=O)N2CC(C)OC(C)C2)c1C (configuration not stated)	-0.3	nt	nt	-4	nt

Structural class: those above containing an aryl thioether with sulfur outside any ring
SMILES	RecA splice inh	Mtb growth	Arbovirus anti	Mtb bLac sens	YopH inh	others
Cc1ccc(-n2c(SCC(N)=O)nnc2-c2cccnc2)c(C)c1	-0.6	-8%	-3	4	-38
Cc1cccc(Nc2nnc(SCC(=O)c3ccc(Br)s3)s2)c1C	1.4	-1%	-37	?	-18

Next results.
SMILES	RecA splice inh	Mtb growth	Arbovirus anti	Mtb bLac sens	YopH inh	others
Cc1ccc(C)c(N(CC(=O)NCc2ccco2)C(=O)CCC(=O)Nc2ccccn2)c1	4.0	3%	3	nt	21
CCCCCC(=O)Nc1cccc(C2=NOC3(C2)C[C@@H](C(N)=O)N(C(=O)c2cc([N+](=O)[O-])cc([N+](=O)[O-])c2C)C3)c1 (some centres not stated)	3.0	4%	nt	4	nt
O=C(O)C1C2C=CC(C2)C1C(=O)NCCc1cccc(Cl)c1 (configuration not stated)	-2.4	2%	-5	0	-6	Arbovirus anti repeat=4
CCCSc1nnc(-c2ccccc2N)c(=O)[nH]1	0.5	-11%	0	0	-29
CC(C)(C)OC(=O)N1CCC(c2c(C(=O)O)cnn2-c2ccc(Cl)cc2)CC1	0.1	1%	6	nt	-33
O=C(NCc1ccc(F)cc1)C(c1cccnc1)N(C(=O)c1csnn1)c1ccccc1 (configuration not stated)	0.5	nt	nt	1	nt
C=C(C)c1cccc(C(C)(C)NC(=O)N2CCN(C/C=C/c3ccccc3)CC2)c1	1.7	19%	-21	-2	-26
COc1ccc(-c2c(C)[nH]n3c(=O)c(Cc4ccccc4)c(C)nc23)cc1	1.6	71%	-12	89	-19
COC(=O)c1ccc(C(=O)Nc2ccc(N)cc2N)cc1	1.3	-5%	-1	-4	-10
CN1CCN(S(=O)(=O)c2cnc(Cl)c(Br)c2)CC1	-0.6	-7%	1	-8	-30
Cc1cc(C)c(OCC(=O)Nc2ccccc2N2CCCCC2)c(C)c1	-1.4	nt	nt	-1	nt
O=C(NC1CCS(=O)(=O)C1)Oc1ccccc1 (configuration not stated)	-12	9%	20	-4	10
Cc1ccc(NC(=O)CCC(=O)n2nc(C)cc2C)c(C)c1	1.5	-5%	6	11	8
O=[N+]([O-])c1ccc(N2CCNCC2)c(Cl)c1	-11	-2%	-11	-9	nt
COC(=O)c1ccccc1NS(=O)(=O)c1ccc2[nH]c(=O)[nH]c2c1	3.6	1%	-3	0	-13

Structures from the list above containing bromine:
SMILES	RecA splice inh	Mtb growth	Arbovirus anti	Mtb bLac sens	YopH inh	others
Cc1cccc(Nc2nnc(SCC(=O)c3ccc(Br)s3)s2)c1C	1.4	-1%	-37	?	-18
CN1CCN(S(=O)(=O)c2cnc(Cl)c(Br)c2)CC1	-0.6	-7%	1	-8	-30

Later entries.
SMILES	RecA splice inh	Mtb growth	Arbovirus anti	Mtb bLac sens	YopH inh	others
O=C(NCC(c1cccs1)N1CCOCC1)c1ccc([N+](=O)[O-])cc1 (configuration not stated)	-3.8	-4%	0	-7	3
Cc1ccc(CNC(=O)CCNS(=O)(=O)c2ccc(Br)s2)cc1	2.1	-9%	0	-3	nt
COc1cc2c(cc1OC)C(c1cccs1)N(C(=S)NC(C)C)CC2 (configuration not stated)	3.8	-3%	0	6	nt
O=C(C1CCCN(S(=O)(=O)c2cc(Cl)ccc2Cl)C1)N1CCOCC1 (configuration not stated)	-0.3	nt	nt	-3	nt
O=C1CN(C(=O)NCC(=O)N[C@H](Cc2ccccc2)C(=O)O)c2ccccc2N1	2.9	nt	nt	-1	nt
N#CC1=C(N)N(c2ccccc2)C2=C(C(=O)CCC2)C1c1cccs1 (configuration not stated)	6.0	3%	8	-20	9
COc1ccccc1/C=C/C=N/n1c(C2CCCCC2)n[nH]c1=S	2.2	-7%	-7	-1	-22
Cc1ncc(CO)c2cc(S(=O)(=O)c3ccc(F)cc3)c(=O)oc12	1.1	-12%	2	-4	-27	Arbovirus anti repeat=1
COC(=O)c1ccc2c(c1)S(=O)(=O)NC(=NCCCN1CCOCC1)S2	1.3	nt	7	-14	-16
CC(C)Cc1cc(C(=O)Nc2ccc3c(c2)OCO3)no1	0.9	3%	-37	-3	-2
Cc1ncc([N+](=O)[O-])n1CCOC(=O)c1ccc(Cl)cc1Cl	4.0	-2%	-1	79	-57
COc1cc(C(C)=O)ccc1Oc1ncccn1	0.4	nt	nt	-4	nt
O=C(CSc1nc2ccccc2c(=O)n1CCCN1CCOCC1)c1c[nH]c2ccccc12	2.3	-4%	-8	89	nt
O=[N+]([O-])c1cnccc1Nc1cccc(F)c1	3.0	-3%	18	-2	-1
COc1ccc(-c2cccc(C3CC=CC4C3C(=O)N(Cc3ccccc3)C4c3ccc(OC)c(Cl)c3)c2)cc1 (configuration not stated)	7.6	5%	nt	-7	nt
Cc1ccccc1NS(=O)(=O)c1ccc(C(=O)N2CCCCCCC2)cc1	2.0	nt	nt	-1	nt
Cc1ccc(C)c(OCCCNC2CCCC2)c1C	0.0	-1%	-21	-7	nt
O=C(N/N=C/c1ccco1)/C(=C/c1cccc([N+](=O)[O-])c1)NC(=O)c1ccccc1	9.6	1%	3	4	8
Cc1ccc(CN2CCNC(=O)C2CC(=O)N(C)C(C2CC2)C2CC2)o1 (configuration not stated)	-1.2	-4%	6	-7	nt
COc1ccc(S(=O)(=O)NC2CCCC2)cc1Cl	-1.2	nt	nt	-5	nt
COc1cc(C(=O)NC2(C(F)(F)F)NC(=O)N(CCCc3ccccc3)C2=O)cc(OC)c1OC (configuration not stated)	-6.3	nt	-7	0	-28
COC(=O)C1(CO)NC(c2cccs2)C2C(=O)N(c3ccccc3)C(=O)C21 (configuration not stated)	0.9	-10%	-2	-2	-20
CCOC(=O)C1CCN(C(=S)Nc2ccc(S(N)(=O)=O)cc2)CC1	-2.5	4%	4	-3	-23
CC1(CCc2ccc(O)cc2)NC(=O)NC1=O (configuration not stated)	-2.0	-9%	12	8	-29
CCOC(=O)c1c(NC(=O)Cn2nc(C(=O)O)c3ccccc3c2=O)sc2c1CCC(C)C2 (configuration not stated)	0.3	5%	nt	6	nt
CC(C)C(=O)Nc1ccccc1N1CCN(C(=O)c2ccccc2)CC1	2.8	-10%	6	0	-25
CCOc1ccc(/C=C(\C#N)C(=O)Nc2cccnc2)cc1	-3.1	nt	6	1	-27
CCS(=O)(=O)c1ccc2oc(SCC(=O)N3CCCCC3)nc2c1	-1.8	-8%	3	1	nt
COc1ccc(NC(=O)c2cccs2)cc1OC	-2.3	-1%	5	1	-30
Cc1ccc(C)c(OCC(=O)N/N=C/c2ccsc2)c1	-2.2	-1%	-5	-5	6

Pulled one by one from above:
SMILES	RecA splice inh	Mtb growth	Arbovirus anti	Mtb bLac sens	YopH inh	others
CCOc1ccc(/C=C(\C#N)C(=O)Nc2cccnc2)cc1	-3.1	nt	6	1	-27
COC(=O)C1(CO)NC(c2cccs2)C2C(=O)N(c3ccccc3)C(=O)C21 (configuration not stated)	0.9	-10%	-2	-2	-20
CC(C)C(=O)Nc1ccccc1N1CCN(C(=O)c2ccccc2)CC1	2.8	-10%	6	0	-25
CCOC(=O)c1c(NC(=O)Cn2nc(C(=O)O)c3ccccc3c2=O)sc2c1CCC(C)C2 (configuration not stated)	0.3	5%	nt	6	nt

Other records
SMILES	RecA splice inh	Mtb growth	Arbovirus anti	Mtb bLac sens	YopH inh	others
Cc1ccc(NCC(=O)N/N=C/c2cccc(Oc3ccccc3)c2)cc1	-2.9	11%	22	1	-16
Nc1nncn1C(=O)CCCOc1ccc(Cl)cc1Cl	9.2	-12%	-2	-2	-23
Cc1ccccc1CNc1nnnn1C	-0.7	4%	-4	-3	nt
O=C(COc1ccc(Br)cc1Br)NC(=O)NC1CCCC1	24	4%	20	-7	nt
CN(C)CCOc1ccccc1-c1ccccc1	-1.4	0%	5	39	-16
O=c1cc(-c2ccccc2Cl)oc2cc(O)cc(O)c12	-1.0	-8%	6	6	-3
O=[N+]([O-])c1cccc(S(=O)(=O)Nc2cccc(-c3ccc(N4CCOCC4)nn3)c2)c1	0.7	nt	nt	1	nt
CCN(CC)S(=O)(=O)c1ccc(NS(=O)(=O)c2ccc(F)cc2)cc1	2.2	3%	4	-1	7
CCOc1ccccc1NC(=O)Nc1cc(S(=O)(=O)N(C)C)ccc1C	nt	-16%	nt	-3	nt
c1ccc(-c2nnc(-c3ccccc3)nn2)cc1	-7.5	-1%	nt	40	nt
CN(C)N1C(N)=C(C#N)C(c2ccc(Br)cc2)C2=C1CCCC2=O (configuration not stated)	-5.4	nt	nt	-2	nt
C[C@@H]1CC[C@]2(O[C@@H](CCO)C[C@H](O)[C@H]2O)O1	1.9	-9%	4	-16	-25
O=C(CSc1nnc(Cn2nnc3ccccc32)o1)N(Cc1ccc(F)cc1)c1ccccc1	8.2	10%	15	1	-23
Cc1nn(-c2ccc(Cl)c(Cl)c2)c(=O)c2ccccc12	-2.3	11%	-12	2	-38
Cc1cc(Nc2nc(Cl)c(Cl)cc2Cl)n(-c2ccccc2)n1	0.7	16%	-16	0	-26
O=C(Cn1c(=O)[nH]c2ccccc2c1=O)N1CCN(c2cccc(Cl)c2)CC1	-2.1	-4%	1	-1	nt
